Screens as filed in PubChem BioAssay.
miR-21 FLuc: miR-21 reporter, rising signal. HeLa miR-21 FLuc reporter, luciferase, 48 h. Potency, µM (top dose mostly 38.3 µM), inactives show top-dose reporter change, positive = more light. 340,000 tested, under 10 active; active = well fitted rising curve with a large enough effect; inconclusive = small, poorly fitted or top-dose-only effect; inactive = no such curve, though single readings can be large or run the other way;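 note: % of control where 0% means no effect; miR-21 action dims this reporter so a rising signal means less miR-21 action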
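Luminescence from a firefly luciferase reporter carrying a miR-21 binding site downstream, stably expressed under a CMV promoter in HeLa cells that make miR-21 endogenously, reports miRNA modulation after 48 h compound exposure up to approximately 40uM final.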
Rango complex inh: inhibitors of Rango-importin beta complex formation | Q14974 | Rango CFP/YFP FRET sensor + importin beta, 45 min | Potency, µM (highest dose often 92.2 µM), for inactives: at the top dose inhibition of complex formation | actives 0.031% (n = 340,000) | AID 540263; active = rising FRET ratio curve, often small or poorly fitted; inconclusive = mostly compound fluorescence or quenching in the first reads; inactive = flat curves in all reads;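 note: potency is the fitted concentration of half-maximal effect; 0% = DMSO wells and 100% = buffer wells lacking importin beta; nearly all actives have a fitted effect of over 15% in size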
Target sequence (Q14974 whole entry, looked up): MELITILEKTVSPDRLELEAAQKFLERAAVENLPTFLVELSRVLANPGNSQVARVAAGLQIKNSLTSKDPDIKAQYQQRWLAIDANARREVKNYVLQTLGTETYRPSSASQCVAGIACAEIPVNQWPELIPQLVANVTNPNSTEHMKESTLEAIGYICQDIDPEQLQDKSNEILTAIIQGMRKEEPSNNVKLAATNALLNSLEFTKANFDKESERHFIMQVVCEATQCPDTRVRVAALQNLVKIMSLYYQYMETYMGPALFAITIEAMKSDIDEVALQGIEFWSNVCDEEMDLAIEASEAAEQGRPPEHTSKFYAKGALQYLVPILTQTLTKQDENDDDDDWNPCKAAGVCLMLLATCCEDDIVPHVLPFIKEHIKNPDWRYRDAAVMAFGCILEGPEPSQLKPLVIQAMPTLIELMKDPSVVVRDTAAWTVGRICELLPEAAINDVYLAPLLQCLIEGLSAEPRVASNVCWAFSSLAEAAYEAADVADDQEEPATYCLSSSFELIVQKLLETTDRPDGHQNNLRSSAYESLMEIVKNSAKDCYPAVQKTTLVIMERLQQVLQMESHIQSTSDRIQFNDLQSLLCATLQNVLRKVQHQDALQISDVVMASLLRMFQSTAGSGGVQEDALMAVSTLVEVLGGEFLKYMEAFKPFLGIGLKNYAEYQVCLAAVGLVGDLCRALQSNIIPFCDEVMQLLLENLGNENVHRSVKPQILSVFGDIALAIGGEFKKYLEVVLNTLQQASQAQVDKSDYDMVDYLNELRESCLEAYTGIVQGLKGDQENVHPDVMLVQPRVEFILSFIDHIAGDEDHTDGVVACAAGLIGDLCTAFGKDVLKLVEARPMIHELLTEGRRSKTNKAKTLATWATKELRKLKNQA
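FRET biosensor (snurportin 1 IBB flanked by EYFP and cerulean), 50 nM, with compound 5 min, then 0.125 microM importin beta in PBS, 1 mM DTT, 0.02% Tween-20, 0.1% BSA. CFP/YFP ratio read after 45 min at room temperature; pre-read flags interference.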
GLA inh pH 4.5: inhibitors of human alpha-galactosidase A at pH 4.5; 230,000 tested, under 10 active; AID 1467; purified enzyme, 4-MU-alpha-Gal fluorescence, pH 4.5; P06280; activity change, negative = inhibition, % at 105 µM; inconclusive = small, poorly fitted or top-dose-only inhibition, or a rising curve; inactive = flat fitted curve, though single readings scatter; no compound was filed as active;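 note: 0% = full activity with enzyme and -100% = basal without enzyme; dose as in the result columns while the protocol names 77 µM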
Rango dissoc inh: inhibition of RanGTP-driven Rango-importin beta dissociation | actives 0.071% (n = 340,000) | Potency, µM (series often up to 46.1 µM), inactives show at the top dose activity change, negative = inhibition | Biochemical FRET Rango-importin beta, RanGTP-induced dissociation; active means falling FRET ratio curve, often poorly fitted, with flat reads before Ran was added; inconclusive means other falling curves, or compound fluorescence or quenching; inactive means flat or rising ratio curve;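 note: potency is the fitted concentration of half-maximal effect; % of control where 0% means no effect; nearly all actives have a fitted effect of over 45% in size; -100% = wells without RanGTP and RCC1; the record marks most hits as doubtful in a second field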
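Recombinant Rango FRET biosensor (EYFP–snurportin 1 IBB–cerulean CFP10) at 0.1 uM premixed with 0.25 uM importin beta in PBS, 1 mM DTT, 0.02% Tween-20, 0.1% BSA. Compound added 5 min; RanGTP-RCC1 (0.6 uM Ran, 2 mM GTP, 0.2 uM RCC1) then triggers release, read at 45 min.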
Starred values were filed as active, the others as inactive; ? = inconclusive; nt = no result given. Not all compounds are listed, so the mix of outcomes need not match the whole.

Values run as follows: miR-21 FLuc, Rango complex inh, GLA inh pH 4.5, Rango dissoc inh
CC1CCCCC1NC(=O)/C=C/c1nc2ccccc2s1 (stereo not drawn)
→ -29%, 0.0%, -1, 13%
COc1ccc(C(=O)N2CCOC2CNC(=O)C(=O)NCc2ccc(Cl)cc2)cc1 (stereo not drawn)
→ 4%, 1.0%, -6, 16%
COc1cc2nncc(SC)c2cc1OC
→ nt, 1.9%, nt, 2%
O=C(COc1ccccc1)N[C@@H]1c2ccccc2CC[C@@H]1O
→ nt, 5.4%, nt, -9%
CC(NC(=O)c1ccco1)C(=O)Nc1nc(-c2ccccn2)cs1 (stereo not drawn)
→ 3%, -6.3%, -4, 2%
Cc1ccc2[nH]c(C(=O)N3CCN(C(c4ccccc4)c4ccccc4)CC3)cc2c1
→ -6%, -2.2%, nt, -22%
CCOC(=O)c1[nH]c(=O)[nH]c1CN(Cc1ccco1)Cc1[nH]c(=O)[nH]c1C(=O)OCC
→ 1%, -0.3%, 5, -2%
N#CCCn1c(SCC(=O)NCc2ccco2)nc2ccccc21
→ -1%, 2.9%, 11, 2%
Cc1nn(C(=O)c2cccnc2)c(C)c1Sc1ccc(Br)cc1
→ -5%, -0.6%, 7, 16%
Cc1c(C)[n+](=O)c(-c2ccc(Br)cc2)c(C)n1[O-]
→ 9%, 4.2%, 1, -9%
CC(C)(C)c1cc(CN2CCCCC2)cc(C(C)(C)C)c1O
→ -6%, nt, 5, nt
C/C(=N/NC(=O)c1cc(-c2cccc([N+](=O)[O-])c2)n[nH]1)c1ccc(Cl)cc1
→ -2%, -1.3%, -4, -8%
O=S(=O)(NCCc1csc(-c2ccc(C(F)(F)F)cc2)n1)c1ccc2c(c1)OCCO2
→ 8%, 0.7%, -19, -8%
COCC(C)N1CCC(Oc2cccc(C(=O)NCCc3ccccc3)c2)CC1 (stereo not drawn)
→ -30%, -4.3%, nt, 0%
CCOCCCN(C(=O)c1ccco1)C(C(=O)NC1CCCC1)c1cccc(OC)c1OC (stereo not drawn)
→ -1%, -3.2%, 7, -17%
O=C(COC(=O)c1cccc(NC(=O)c2ccco2)c1)c1ccc(Br)cc1
→ -30%, -1.5%, -6, -3%
C[C@H]1O[C@@H](O[C@H]2CC[C@@]3(C)C(CC[C@]4(C)C3C=C[C@]35OC[C@@]6(CCC(C)(C)C[C@H]63)[C@@H](O)C[C@]54C)[C@]2(C)CO)[C@H](O)[C@@H](O[C@@H]2O[C@H](CO)[C@@H](O)[C@H](O)[C@H]2O)[C@H]1O (stereo partly drawn)
→ nt, 4.7%, nt, 19%
COc1ccc(CN2CCCCC2C)c(C)c1C (stereo not drawn)
→ 3%, -1.7%, -9, 16%
O=C(NCc1ccco1)c1csc2c1CCCC2
→ -23%, -2.3%, 5, -3%
CCCC(=O)Nc1ccc(C(=O)COC(=O)C2CC2)cc1
→ nt, 2.2%, nt, 17%
CC1CN(C(=O)c2ccc(Br)c(S(=O)(=O)N3CCOCC3)c2)CC(C)O1 (stereo not drawn)
→ nt, -0.2%, nt, 1%
Cn1cnnc1SCC(=O)c1c[nH]c2ccccc12
→ -44%, 3.3%, 6, 1%
NC(N)=N/N=C/c1cc([N+](=O)[O-])ccc1O
→ -16%, 0.7%, -7, 8%
O=C(CCNC(=O)c1ccc(Cl)cc1)NNC(=O)c1ccc(F)cc1
→ nt, -0.3%, nt, 10%
COc1ccccc1CN1CC(C(=O)NCc2cnn(C)c2)CCC1=O (stereo not drawn)
→ -1%, -0.4%, nt, 22%
COc1ccc(-c2nn3c(-c4ccc(F)cc4)nnc3s2)cc1
→ -19%, -2.0%, 1, -8%
Cc1ccc2nc(SCc3nc4cc(Cl)ccc4c(=O)[nH]3)[nH]c2c1
→ -5%, ?, -7, -14%
Cc1ccc(S(=O)(=O)CC(C)N2CCN(C3CCCCC3)CC2)cc1 (stereo not drawn)
→ -4%, 4.8%, 4, ?
CCOC(=O)c1cc2c(=O)n3cccc(C)c3nc2n(CC2CCCO2)c1=NC(C)=O (stereo not drawn)
→ nt, ?, nt, ?
Cc1ccc(C2=NN(CCC(=O)NCCC(C)C)C(=O)CC2)cc1
→ -2%, nt, -3, nt
COc1cccc(N/C(C)=C/C(=O)c2ccc(Br)cc2)c1
→ -59%, -2.3%, -2, 13%
COc1cc(NC(=O)c2csc(N)n2)cc(C(=O)Nc2cccc(C(F)(F)F)c2)c1
→ ?, -2.5%, -1, 9%
CCCCc1ccc(NC(=O)CSc2nc(=O)n(CCN(CC)CC)c3c2CCC3)cc1
→ nt, -3.0%, nt, -5%
CCC(C)(C)NC(=O)C(c1cccc(OC)c1OC)N(Cc1ccc(OC)cc1)C(=O)CCC(=O)Nc1cc(C)on1 (stereo not drawn)
→ 3%, ?, nt, -14%
CC(=O)c1sc(Nc2nc3ccc(F)cc3s2)nc1C
→ -10%, ?, -6, ?
O=[N+]([O-])c1ccc(OCc2cn([C@@H](CO)c3ccccc3)nn2)c(Br)c1
→ -22%, -2.7%, -2, -9%
COc1ccc(S(=O)(=O)N2CCOCC2)cc1NC(=O)CO/N=C/c1ccccc1OC(F)F
→ 2%, 12%, 3, 25%
COC1c2ccccc2C(=O)N1Cc1ccc(F)cc1 (stereo not drawn)
→ 0%, -0.4%, nt, -1%
CN(C)C=NC(=O)c1cc(C(=O)c2ccc(C(C)(C)C)cc2)c[nH]1
→ -66%, -0.1%, -3, 0%
CCCCCn1c(SCCc2ccccc2)nc2c1c(=O)[nH]c(=O)n2C
→ -8%, 1.8%, 4, 12%
O=C(COC(=O)c1c(Cl)cccc1Cl)NCc1cccs1
→ nt, 1.3%, nt, -8%
O=C(N/N=C/c1ccccc1)c1ccc(NC(=O)c2ccc(F)cc2)cc1
→ -12%, -0.1%, nt, 36%
COC(=O)C(CC(=O)c1ccc(Cl)cc1)c1ccccc1 (stereo not drawn)
→ nt, -0.5%, nt, 3%
CCOc1cc(C2NC(=O)NC(c3ccccc3)=C2C(C)=O)ccc1OCC(N)=O (stereo not drawn)
→ -6%, -0.1%, -6, 0%
Cc1ccc(S(=O)(=O)N[C@H](C(=O)N2CCC(C(=O)N[C@H](C(=O)O)c3ccccc3)CC2)C(C)C)cc1
→ 0%, -1.1%, nt, -10%
CC(C)OC(=O)CSc1nnc(-c2ccc(Cl)cc2Cl)o1
→ -3%, -0.4%, -6, 4%
Cc1ccc(-c2csc3nc4c5ccccc5c(NCCCN(C)C)nn4c(=O)c23)cc1
→ -2%, -2.9%, 8, 0%
C=C(C)C(=O)Nc1ccc2c(c1)OCCOCCOCCO2
→ 0%, -3.2%, -7, -8%
Cc1cnc(C(=O)OCC(=O)Nc2cccc3ccccc23)cn1
→ nt, 2.1%, nt, 4%
O=C(CSc1nc2ccccc2c(=O)n1Cc1ccc(F)cc1)NCc1cccs1
→ -5%, 0.2%, -3, -1%
CC(C)=C1C2C=CC1C1C(=O)N(c3ccc4c(c3)OCO4)C(=O)C21 (stereo not drawn)
→ -5%, 0.8%, -4, 2%
Cc1ccc2c(C)c(C(=O)N3CCN(c4cnccn4)CC3)oc2c1C
→ -22%, 0.2%, nt, ?
O=C(CSc1ccc2nnc(-c3ccc(Cl)cc3)n2n1)N1CCc2ccccc21
→ 1%, 3.7%, -6, -12%
CCCCNC(=O)CCC(=O)Nc1ncc(-c2ccc(C)cc2)n1C
→ -13%, 6.0%, 8, 15%
Cc1cccc(NC(=O)Nc2ccc3c(c2)N(C)C(=O)CS3)n1
→ -53%, 2.1%, -16, 20%
O=C(O)COc1ccc2c(c1)O/C(=C\c1cccs1)C2=O
→ 5%, ?, -9, ?
CCc1ccc(C(=O)COC(=O)C(Cc2ccccc2)NC(=O)c2ccc(Cl)cc2)cc1 (stereo not drawn)
→ -4%, -1.2%, -7, -1%
Cc1ccc(S(=O)(=O)N(C)C[C@@H]2Oc3ccc(NC(=O)Cn4cnnn4)cc3C(=O)N([C@@H](C)CO)C[C@H]2C)cc1
→ nt, 2.5%, nt, -11%
CO[C@H]1O[C@H](C)[C@@H](O)C[C@H]1NC(=O)OCc1ccccc1
→ -2%, 0.6%, nt, 11%
Cc1[nH]n(-c2ccc([N+](=O)[O-])cc2)c(=O)c1C=NCC1CCCO1 (stereo not drawn)
→ -19%, 0.3%, 1, 18%

Single records, from the list above. Screens in order: miR-21 FLuc, Rango complex inh, GLA inh pH 4.5, Rango dissoc inh
CCCCc1ccc(NC(=O)CSc2nc(=O)n(CCN(CC)CC)c3c2CCC3)cc1 reads nt, -3.0%, nt, -5%
Cc1ccc(-c2csc3nc4c5ccccc5c(NCCCN(C)C)nn4c(=O)c23)cc1 reads -2%, -2.9%, 8, 0%
C=C(C)C(=O)Nc1ccc2c(c1)OCCOCCOCCO2 reads 0%, -3.2%, -7, -8%

A portion from further up, as a working copy:
Values run as follows: miR-21 FLuc, Rango complex inh, GLA inh pH 4.5, Rango dissoc inh
Cc1ccc(S(=O)(=O)N(C)C[C@@H]2Oc3ccc(NC(=O)Cn4cnnn4)cc3C(=O)N([C@@H](C)CO)C[C@H]2C)cc1
→ nt, 2.5%, nt, -11%
CO[C@H]1O[C@H](C)[C@@H](O)C[C@H]1NC(=O)OCc1ccccc1
→ -2%, 0.6%, nt, 11%
Cc1[nH]n(-c2ccc([N+](=O)[O-])cc2)c(=O)c1C=NCC1CCCO1 (stereo not drawn)
→ -19%, 0.3%, 1, 18%

Continuation:
Values run as follows: miR-21 FLuc, Rango complex inh, GLA inh pH 4.5, Rango dissoc inh
Cc1ccc(-c2noc(CCC(=O)NCc3ccco3)n2)cc1
→ -10%, -2.2%, 5, -12%
CCCN(CC(=O)Nc1ccc(F)c(F)c1F)C(=O)c1ccc(N2CCCC2=O)cc1
→ nt, 3.1%, nt, 1%
C#CCN1C(=O)S/C(=C\c2ccc(-c3ccc(C(=O)O)cc3C)o2)C1=O
→ -77%, ?, nt, ?
CCOc1cc(/C=C2\C(=O)N(Cc3ccc(C)cc3)C(C)=C2C(=O)OC)ccc1O
→ -6%, ?, -26, -19%
O=C(CSc1nnc2scc(-c3ccccc3)n12)NCC1CCCO1 (stereo not drawn)
→ 0%, 1.4%, -1, -17%
CC(C)N(CCNC(=O)C1CCCN(c2ncnc3c2nc2n3CCCCC2)C1)Cc1ccccc1 (stereo not drawn)
→ 5%, 6.2%, nt, 0%
CCCCCCCCN1[C@@H](CC(C)=O)c2cc(C(F)(F)F)ccc2S1(=O)=O
→ nt, -1.8%, nt, -5%
COc1cc([N+](=O)[O-])c(OC)cc1SCc1n[nH]c(=S)n1-c1ccc(F)cc1
→ -1%, -0.9%, -3, 8%
Cc1cc(CNC(=O)CCc2nnc(CCCCc3ccccc3)o2)nn1C
→ 2%, 4.4%, 9, 8%
C[C@@H](NC(=O)c1[nH]cnc1C(=O)Nc1nccs1)c1ccccc1
→ nt, -1.5%, nt, -10%
O=S(=O)(NCCc1ccccn1)c1ccc(F)c(F)c1
→ -3%, -1.8%, 0, -15%
CCOC(=O)C1=C(C)N(C)C(C)=C(C(=O)OCC)C1c1ccccc1
→ -6%, ?, 2, -5%
O=C(N[C@H]1C/C=C\C[C@@H](CC(=O)N(CCO)Cc2ccccc2)C(=O)N2CCC[C@@H]2COC1=O)OCC1c2ccccc2-c2ccccc21
→ nt, 7.1%, nt, 5%
O=C(COc1ccc(-c2ccccc2)cc1)NN=C1CCCC1
→ -6%, 2.0%, 4, 9%
OCC(Cc1ccccc1)NCc1ccccc1C(F)(F)F (stereo not drawn)
→ -4%, 0.1%, 6, 7%
Cc1ccccc1C(=O)Nc1nc2c(C)csc2c(=O)s1
→ 0%, -4.4%, -4, 0%

2 records drawn at random from the list so far, as already listed:
Values run as follows: miR-21 FLuc, Rango complex inh, GLA inh pH 4.5, Rango dissoc inh
Cc1ccc(-c2noc(CCC(=O)NCc3ccco3)n2)cc1
→ -10%, -2.2%, 5, -12%
Cc1cc(CNC(=O)CCc2nnc(CCCCc3ccccc3)o2)nn1C
→ 2%, 4.4%, 9, 8%
